# VDR inh – vitamin D3 receptor (human) inhibition | P11473 | VDR-SRC2-3 peptide fluorescence polarization, 2 h | Potency, µM, for inactives: max response, negative = inhibition, most hits filed as inhibitors | hit rate 0.93% among 400,000 | AID 504847; active = well fitted inhibition curve with a large enough effect; inconclusive = small, poorly fitted or top-dose-only effect, or another doubt; inactive = no such curve, though single readings can be large or run the other way; also: series mostly up to about 120 µM
# Target sequence (P11473 whole entry, looked up): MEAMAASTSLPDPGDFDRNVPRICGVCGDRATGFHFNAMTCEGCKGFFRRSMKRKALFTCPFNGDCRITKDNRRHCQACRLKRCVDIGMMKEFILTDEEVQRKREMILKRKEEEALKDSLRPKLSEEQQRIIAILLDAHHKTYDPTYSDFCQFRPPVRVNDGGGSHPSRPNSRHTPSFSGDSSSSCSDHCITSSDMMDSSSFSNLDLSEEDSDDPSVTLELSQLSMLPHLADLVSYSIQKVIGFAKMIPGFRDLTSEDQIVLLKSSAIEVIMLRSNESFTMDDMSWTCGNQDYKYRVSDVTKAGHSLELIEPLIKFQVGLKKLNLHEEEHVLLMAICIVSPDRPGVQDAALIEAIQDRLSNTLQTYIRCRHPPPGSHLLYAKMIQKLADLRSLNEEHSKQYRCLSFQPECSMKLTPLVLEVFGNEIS
#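 After 23 nl compound addition and a short centrifugation, plates sat for 2 hours at ambient temperature; polarization of fluorescence then indicated loss of VDR binding to peptide SRC2-3.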
# Starred values were filed as active, the others as inactive; ? = inconclusive; & = joins results of further samples. % is scaled to controls: 0 for no effect and ±100 for the full control effect; potency is read from the fitted curve at half-maximal effect. This is a subset. The share of hits here may be higher or lower than overall.
Molecule,VDR inh
O=C(Nc1ccccc1C(=O)NCCN1CCOCC1)c1cccc([N+](=O)[O-])c1,8%
Cc1ccc(CNC(=O)CN(C)S(=O)(=O)c2cnc[nH]2)cc1,-10%
O=S(=O)(Nc1ccccc1Br)c1cccs1,-2%
COc1ccc(Cl)cc1C(=O)NNC(=O)c1[nH]c(C)c(C(C)=O)c1C,-26%
COc1ccc(NC(=S)NC(=O)c2ccccc2)cn1,-9%
CN1CCN(c2ncc3nc(CCc4ccccc4)c(=O)n(C4CC4)c3n2)CC1,?
CCSC1=N/C(=C\c2ccc3c(c2)OCO3)C(=O)S1,-10%
CC(=O)NCCc1cc2ccc(C)c(C)c2[nH]c1=O,-4%
CCCC(C)C(=O)NCc1ccccc1OC (centres undefined),2%
Nc1nc2ccccc2n1/N=C/c1ccc(-c2ccccc2)o1,-8%
CCOC(=O)CNc1ncnc2c1nnn2C,5%
COc1cc2cc(CCO)oc(=O)c2cc1OC,-3%
CCOC(=O)CSc1nc(C)cc(Oc2ccc(=O)n(C)n2)n1,-12%
CCCCc1nnc(NC(=O)CCS(=O)(=O)Cc2ccccc2)s1,9%
O=C(Nc1ccc(Oc2ccccc2)cc1)C1CCN(c2ncccn2)CC1,5%
CCc1ccccc1NC(=O)CSc1nc2c(c(=O)[nH]1)CN(Cc1ccccc1OC)CC2,15%
Cc1ccc(NC(=O)CSc2nnc3nc(C)cc(C)n23)cc1,-2%
CC(C)(O)C#Cc1ccc(C(=O)NCCc2ccc(S(N)(=O)=O)cc2)cc1,-21%
CC1CCc2c(sc(NC(=O)CCc3nc4ccccc4c(=O)[nH]3)c2C#N)C1 (centres undefined),-17%
Cn1nnnc1Sc1ncnc2scc(-c3ccc(F)cc3)c12,-2%&2%
O=C(Cc1ccc(F)cc1)NCC1CCCO1 (centres undefined),-5%
O=C(c1ccc(Cl)c(Cl)c1)N1CCN(Cc2ccc3c(c2)OCO3)CC1,-13%
O=C(NC12CC3CC(CC(C3)C1)C2)C1CC(=O)N(c2ccc(Br)cc2)C1 (centres undefined),21%
Cc1ccc(C)c(CSC2=NCCN2S(=O)(=O)c2ccccc2)c1,-22%
COc1cc2[nH]c(=S)n(CCN3CCOCC3)c(=O)c2cc1OC,-1%
COCCOc1ccc(C(F)(F)F)cc1NC(=O)COC(=O)Cc1c[nH]c2ccccc12,-5%
COc1ccc(/C=C/C(=O)OCC(=O)NC2CCCC(C)C2C)cc1 (centres undefined),-22%
Cc1ccccc1NC(=O)C1CCCN(C(=O)Nc2ccc(F)cc2)C1 (centres undefined),-2%
Cc1ccc(S(=O)(=O)N(C)C)cc1NC(=O)C1CCC1,12%
Cc1ccc(NCC(O)C(O)C(O)CO)cc1C (centres undefined),13%
COc1cccc(-c2ncc3ccccc3c2COC(=O)c2cccs2)c1,-2%
CCc1cccc(C)c1NC(=S)N(CCN(C)C)C(C)c1cccnc1 (centres undefined),-22%
CCCn1c(SCC(=O)Nc2ccc(C(=O)Nc3ccccc3OC)cc2)n[nH]c1=O,0%
CCOc1ccc(NC(=O)N(CCCN2CCOCC2)Cc2cccnc2)cc1,-3%
O=C(Cn1cccc1)NCc1cccs1,-3%
O=C(Cn1cnc(S(=O)(=O)N2CCCC2)c1)Nc1ccc(OC(F)(F)F)cc1,3%&6%
Cc1nnc(SCCn2c(N3CCN(C)CC3)nc3c2c(=O)[nH]c(=O)n3C)s1,-12%
N#C/C(=C\c1ccc(OCc2ccc(F)cc2)cc1)C(=O)Nc1cccc(C(=O)O)c1,?
CC1CCC(NC(=O)CCS(=O)(=O)c2ccc3c(c2)CC(C)N3C(=O)C2CC2)CC1 (centres undefined),-9%
CCCCN(C(=O)COC(=O)CSc1ccc([N+](=O)[O-])cc1)c1c(N)n(CCC)c(=O)[nH]c1=O,-25%
c1ccc(-c2cc3c(N4CCOCC4)ncnc3s2)cc1,4%
O=C(Nc1ccnn1C1CCN(CCCc2ccccc2)CC1)c1cccc(F)c1,7%
CC(=O)OCCc1[nH]c2ccccc2c1C,-19%
Cc1cc(C)cc(NC(=O)COC(=O)CCCC2=NS(=O)(=O)c3ccccc3N2)c1,-12%
COc1ccc(Oc2nccc(-c3ccccc3)c2C#N)cc1,19%
NC(=S)N=Nc1c(O)[nH]c2c(Br)cc(Br)cc12,9%
O=C(O)C1=C[C@@H](c2csc3ccccc23)C[C@@H](OCCCCO)O1,-23%
Cc1ccc(OCCCn2c(-c3ccc(Cl)cc3)nc3ccccc3c2=O)cc1C,-25%
CC1(C)Cc2nc3oc4c(N5CCOCC5)ncnc4c3cc2CO1,-4%
Cc1oncc1-c1cn2ccccc2n1,10%

# New compounds follow
Molecule,VDR inh
CCOC(=O)c1c(S(=O)(=O)N2CCC(C(=O)N3CCN(c4cc(C)ccc4C)CC3)CC2)c(C)n(C)c1C,12%
Cc1ccc(C)c(CN2CCC(CNC(=O)c3cc4ccc5cccnc5c4[nH]3)CC2)c1,0%
CC1(c2nnc(Cc3ccccc3)o2)CC(c2ccc(C#N)cc2)=NO1 (centres undefined),?
Cc1ccc(S(=O)(=O)NC(C)CCc2ccccc2)cc1 (centres undefined),-4%
O=C(CN(C(=O)c1csnn1)c1ccc2c(c1)OCCO2)NCc1ccccc1,2%
Cc1ccc(/C=C/c2ccc3cccc(O)c3n2)s1,-5%
O=C(Nc1ccccc1Oc1cccnc1)C1CCCN(Cc2ccccc2O)C1 (centres undefined),-3%
CCN(CC)c1ccc(/C=N/NC(=O)c2nnn(-c3nonc3N)c2C(C)C)c(O)c1,3%
Cc1ccc(N/N=C(\Cc2nc3ccccc3[nH]2)c2ccccc2)cc1,?
COc1ccc(OC)c(-n2c(C)ccc2-c2ccc(S(C)(=O)=O)cc2)c1,-3%
Cc1cc(-c2csc(N)n2)c(C)n1Cc1ccccc1,10%
O=C(Nc1ccn(Cc2ccccc2F)n1)c1ccc(COc2ccccc2Cl)cc1,-12%
COc1ccc(/C=C/C(=O)ONC2=NCCCCC2)cc1OC,-7%
COc1cccc(Cn2cnc3c2c(=O)n(C)c(=O)n3C)c1,-8%
Cc1ccc2c(c1)S(=O)(=O)N(C)C(c1ccccc1)=C2,-5%
Cc1ccc(OCCCCCCN2CCNCC2)cc1,-2%
COc1ccc(NC(=O)CN2CCC(NC(=O)c3ccco3)CC2)c([N+](=O)[O-])c1,3%
CC(C)c1nc(NCCO)c(C#N)c2c1CCCC2,-10%
O=c1c(-c2cccs2)nc2cnc(N3CCNCC3)nc2n1-c1ccccc1,-5%
Cc1ccc2[nH]c3c(=O)n(CC(=O)N4CCN(C)CC4)ncc3c2c1,?
Cn1c(=O)c2c(nc(CN3CCOCC3)n2CC(O)CO)n(C)c1=O (centres undefined),-2%
COCCN(C(=O)CCc1ccccc1OC)c1nnc(-c2cccnc2)s1,-5%
CCCN(CC1CC1)C(=O)COC(=O)c1oc2ccc(OCC)cc2c1C,-1%
OCCC1CN(Cc2nc(-c3ccccc3)cs2)CCN1C1CCCC1 (centres undefined),-17%
CC(C)NC(=O)NC(=O)COC(=O)c1cccc(OC(F)F)c1,10%
O=C(Cn1nnc(-c2ccc(Cl)cc2)n1)NCCC1=CCCCC1,16%
Cc1nn(Cc2ccccc2)c(C)c1NC(=O)CCCn1nc(C)c([N+](=O)[O-])c1C,6%
O=C(O)/C=C/C(=O)Nc1ccccc1C(=O)OCC(=O)c1ccc2c(c1)OCCO2,5%
CCCCSCc1nc2ccccn2c1Br,2%
CS(=O)(=O)c1ccc2nc(NC(=O)CC3CCCC3)sc2c1,-7%
COc1ccc(S(=O)(=O)NC(C(C)C)C(C)C)cc1OC,8%
CC(C)NC(=S)N1CCC(Cc2ccccc2)CC1,4%
CC(C)c1ccc(CCNC(=O)c2cccc(S(=O)(=O)N3CCN(C)CC3)c2)cc1,21%
CCOC(=O)c1cnc2c(C)c(-c3ccccc3)[nH]n2c1=O,2%
CCOC(=O)CN(C(=O)CSc1nnc2c(n1)[nH]c1ccc(OC)cc12)c1ccc(F)cc1,7%
CCOC(=O)c1c(C)[nH]c(C)c1S(=O)(=O)N1CCC(C(=O)NCc2cccc(C)c2)CC1,-1%
COc1cc(C(=O)NCCCNc2nc3cc(C)c(C)cc3cc2C#N)cc(OC)c1OC,-11%
CCOC(=O)C1=C(C)N=C2SCCC(=O)N2[C@@H]1c1cccs1,0%
CC1=C(C)C(=O)N(CCC(=O)O)C1=O,17%
CC1CC[C@@]2(C(=O)O)CCC3(C)C(=CCC4[C@]5(C)CC(O)C(O)[C@](C)(CO)C5C(O)C[C@@]43C)C2C1C (some centres undefined),2%
Cc1ccc(CCNC(=O)c2nc(CS(=O)(=O)c3ccc(Cl)cc3)no2)cc1,-1%
O=S(=O)(Nc1nnc(C(F)(F)F)s1)c1ccc(Cl)cc1,-30%
COCCN(C(=O)CN1CCN(S(=O)(=O)c2ccc(F)cc2)CC1)c1c(N)n(Cc2ccccc2)c(=O)[nH]c1=O,8%
Cc1ccc(N2CC(C(=O)Nc3cccnc3)CC2=O)cc1C (centres undefined),4%
CCOc1ccc(C(=O)NCc2ccc3c(c2)OCO3)cc1OCC,1%
O=C(O)c1ccc(N2C(=O)/C(=C/C=C/c3ccccc3)SC2=S)cc1,-10%
O=C(Nc1ccc(F)c(Cl)c1)NC1CC1,10%
O=C(O)c1ccccc1C(=O)c1ccc(Sc2ccc(Cl)cc2)c([N+](=O)[O-])c1,-29%
O=C(NC1CCC(O)CC1)c1ccc2c(c1)S(=O)(=O)N=C1CCCCCN12 (centres undefined),-8%
CCN(CC)S(=O)(=O)c1ccc(N2CCCCS2(=O)=O)cc1,7%

# Individual results from the results shown.
# Under VDR inh, `COc1ccc(/C=C/C(=O)OCC(=O)NC2CCCC(C)C2C)cc1` (centres undefined) has -22%
# Under VDR inh, `CCCCc1nnc(NC(=O)CCS(=O)(=O)Cc2ccccc2)s1` has 9%

# 2 successive records already listed, for reference:
Molecule,VDR inh
O=C(NC1CCC(O)CC1)c1ccc2c(c1)S(=O)(=O)N=C1CCCCCN12 (centres undefined),-8%
CCN(CC)S(=O)(=O)c1ccc(N2CCCCS2(=O)=O)cc1,7%

# The listing continues.
Molecule,VDR inh
Cc1ccc2[nH]c(=O)c(CN(CC3CCCO3)C(=S)Nc3ccccc3)cc2c1 (centres undefined),-13%
C=CCN(c1ccccc1)S(=O)(=O)c1cccc(C(=O)Nc2ncccc2C)c1,-12%
COc1ccccc1N1CCN(CC(=O)NCC2CCCO2)CC1 (centres undefined),4%
CC(=O)Nc1ccc(Nc2cc(C(C)C)nc3c(-c4ccccc4)c(C)nn23)cc1,2%
COc1ccc2c(CC(=O)OCC(=O)Nc3ccc(S(N)(=O)=O)cc3)coc2c1,-6%
CC(=O)n1nc(-c2ccc(C)cc2)nc1NCc1ccco1,?
Cc1ccsc1C(=O)OCc1nc2ccsc2c(=O)[nH]1,-19%
CCOc1cc(/C=N/NC(=O)C(C)Sc2ccccc2)ccc1O (centres undefined),-12%
COc1ccccc1N(C)S(=O)(=O)c1ccc(C(=O)OCC(=O)N2CCC2)cc1,-3%
COc1ccc(OCc2cc(C(=O)NC3CCOCC3)no2)c2ccccc12,-8%
Cc1ccc(C(=O)CSc2nc3ccccc3c(=O)[nH]2)cc1C,-10%
CCC(=O)c1cc2c(cc1NC(=O)c1ccc(C)cc1)OCCO2,-1%
Cc1nc2n(COCCO)cnn2c(=O)c1Br,-18%
CCc1ccc(N2CC(C(=O)OCC(=O)Nc3ccc(C(C)=O)cc3)CC2=O)cc1 (centres undefined),18%
NNC(=O)c1ccc(COc2ccc3c(c2)CCC3)cc1,-27%
CC(=O)[C@H]1[C@H]([C@H](O)[C@H](O)CO)O[C@](O)(C(=O)O)C[C@@H]1O,-8%
O=C(c1ccc(Cl)cc1[N+](=O)[O-])N1CCN(c2ccccn2)CC1,15%
COc1ccc(NC(=O)c2nc[nH]c2C(=O)N2CCN(c3ccccc3)CC2)cc1,9%
Cc1noc(C)c1COc1cccc(C(=O)Nc2ccc(Br)cc2F)c1,9%
CC(C)(C)c1ccc(/C=C/C(=O)NC2=NCCS2)cc1,25%
Cc1ccc(C(=O)O)cc1NC(=O)c1nsc2ccccc12,8%
Nc1nc(SC23CC4CC(CC(C4)C2)C3)ns1,-2%
CCCCP(=O)(CCCC)c1ccccc1C(=O)O,0%
COCCCNC(=O)CSc1c2c(nc3ccc(Cl)cc13)CCCC2,-21%&-22%
Nc1nonc1-c1nc2ccccc2n1Cc1ccc(F)cc1Cl,10%
O=C1CS(=O)(=O)C2(C(=O)N(Cc3ccccc3)c3ccccc32)N1c1ccc(F)c(Cl)c1 (centres undefined),8%
COc1ccccc1CNC(=O)CN(C)S(=O)(=O)c1cccc2cccnc12,22%
Oc1ccccc1C1C=C(c2ccc3c(c2)OCO3)NC(c2cccc(F)c2)N1 (centres undefined),?
COc1cccc(CCNC(=O)CCc2nnc(Cc3cc(OC)ccc3OC)o2)c1,-28%
Nc1c(Cl)ncnc1N1CCCC1,-4%
Cc1noc(NS(=O)(=O)c2ccc(NC(=O)CCC3CCCC3)cc2)c1C,4%
COc1ccccc1N(C(=O)c1snc(C(N)=O)c1N)C(C(=O)NCc1ccccc1)c1ccc(O)cc1 (centres undefined),5%
O=C(COC(=O)c1ccc(F)c([N+](=O)[O-])c1)NC(=O)NCc1ccccc1,?
Cn1nnnc1SCC(=O)NCCc1ccc(Cl)cc1,-11%

# Source: PubChem BioAssay (National Center for Advancing Translational Sciences (NCATS))
